# Screens deposited in PubChem by several laboratories.
# ERa coact inh: ER-alpha (human) coactivator binding inhibition; P03372; TR-FRET ER-alpha LBD / SRC-1 peptide, estradiol-bound; inhibition, % at 25.6 µM; 86,000 compounds, 1.7% hits; AID 629; in the data active = inhibition above about 50%;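 note: 0% = receptor plus peptide control and 100% = peptide only without receptor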
# CD11b adhes inh: blocks human CD11b/CD18 adhesion to fibrinogen | P05107+P11215 | K562 CD11b/CD18 adhesion to fibrinogen, ATPlite luminescence; Mn2+ added to activate the integrin | inhibition, % at 10 µM | 93,000 compounds, 0.54% hits | AID 1497;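 active = primary inhibition of 50% or more at 10 µM, then 40% or more on retest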; note: some results filed as inactive read as strong as hits
# Fibroblast inh: blocks proliferation of human lung fibroblasts | viability, % at 10 µM | LL 47 human lung fibroblast viability, ATP luminescence; hits give low values | 85,000 compounds, 1.1% hits;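 active = viability at or below 50% in the single dose screen; inactive = viability above 50%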;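 note: compound exposure lasted 72 h before the ATP readout; 100% = median luminescence of untreated cell-only wells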
#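 Test system: LL 47 human lung fibroblasts / Incubation: 72 h compound exposure at 37 °C after overnight plating / Technique: luminescent ATP detection, CellTiter-Glo / Compound dosing: 0.1% DMSO in all compound wells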
# CD11b adhes enh: CD11b/CD18-fibrinogen binding enhancement. K562 CD11b/CD18 adhesion to fibrinogen, ATPlite luminescence. 93,000 compounds, 0.07% hits. activation, % at 10 µM. AID 1499. P05107+P11215;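 active = 10 µM primary screen giving 50% or more activity, confirmed by 40% or more on retest at that dose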; note: strong numbers were not always called active
# ERa coact pot: enhances coactivator binding to human estrogen receptor alpha; P03372; coactivator binding (% of control), % at 25.6 µM; AID 639; 86,000 compounds, 1.3% hits; TR-FRET ERalpha-LBD/SRC-Cy5 coactivator binding, 2 h; 100 = basal binding, no effect; in the data active = activity above about 200%;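 note: binding measured in presence of low estradiol as agonist stimulus; 0% = peptide alone without receptor and 100% = receptor with peptide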
# HUVEC prolif 384: inhibitors of human endothelial cell proliferation. HUVEC proliferation, CellTiter-Glo luminescence, 72 h; hits give low values. viability, % at 10 µM (by protocol). 86,000 compounds, 1.1% hits;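 active = viability at or below 30%; inactive = viability above 30%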;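 note: 100% = median luminescence of DMSO-only cell control wells on each plate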
# * hit, by the source's call; x = no result given. Not all compounds are listed; rates above refer to the full screens.
1. CCCC(=O)NC(Oc1ccc(Cl)cc1Cl)C(Cl)(Cl)Cl (stereo not given)
2. CC(C)CCC1(CN2CCCC2=O)C(=O)NC(=O)NC1=O
3. O=C(Cn1cnc2sc3c(c2c1=O)CCCC3)NCCC(=O)N1CCC2(CC1)OCCO2
4. CCN1CCN(c2nc3ccccc3s2)CC1
5. CCCCCn1c(N)c(C(=O)NCc2cccs2)c2nc3ccccc3nc21
6. CCCCC/C(=N\O)c1c[nH]c2ccccc12
assay / entry | 1 | 2 | 3 | 4 | 5 | 6
ERa coact inh | x | -3 | -1 | 8 | -1 | -4
CD11b adhes inh | -7 | -9 | x | x | -9 | x
Fibroblast inh | x | 100 | 110 | 119 | 86 | 87
CD11b adhes enh | 2 | 1 | x | x | 13 | x
ERa coact pot | x | 110 | 111 | 107 | 99 | 98
HUVEC prolif 384 | x | 94 | 115 | 112 | 82 | 81

# For convenience, 2 of the compounds above.
4. CCN1CCN(c2nc3ccccc3s2)CC1
5. CCCCCn1c(N)c(C(=O)NCc2cccs2)c2nc3ccccc3nc21
assay / entry | 4 | 5
ERa coact inh | 8 | -1
CD11b adhes inh | x | -9
Fibroblast inh | 119 | 86
CD11b adhes enh | x | 13
ERa coact pot | 107 | 99
HUVEC prolif 384 | 112 | 82

# An excerpt from above in order of SMILES length, smallest number first:
4. CCN1CCN(c2nc3ccccc3s2)CC1
6. CCCCC/C(=N\O)c1c[nH]c2ccccc12
1. CCCC(=O)NC(Oc1ccc(Cl)cc1Cl)C(Cl)(Cl)Cl (stereo not given)
5. CCCCCn1c(N)c(C(=O)NCc2cccs2)c2nc3ccccc3nc21
3. O=C(Cn1cnc2sc3c(c2c1=O)CCCC3)NCCC(=O)N1CCC2(CC1)OCCO2
assay / entry | 4 | 6 | 1 | 5 | 3
ERa coact inh | 8 | -4 | x | -1 | -1
CD11b adhes inh | x | x | -7 | -9 | x
Fibroblast inh | 119 | 87 | x | 86 | 110
CD11b adhes enh | x | x | 2 | 13 | x
ERa coact pot | 107 | 98 | x | 99 | 111
HUVEC prolif 384 | 112 | 81 | x | 82 | 115

# (list continues)
7. O=P(C(c1ccc2c(c1)OCO2)N1CCOCC1)(N1CCOCC1)N1CCOCC1 (stereo not given)
8. C=C(C)CSc1nnc([C@@H](N)Cc2c[nH]c3ccccc23)o1
9. CCC12CN3CC(CC)(CN(C1)C3c1cccnc1)C2=O (stereo not given)
10. Cc1oc(-c2ccccc2F)nc1CS(=O)CC(=O)N1CCC2(CC1)OCCO2 (stereo not given)
11. CCOC(=O)N(c1ccccc1)P1(=S)OCC(C)O1 (stereo not given)
assay / entry | 7 | 8 | 9 | 10 | 11
ERa coact inh | -9 | -7 | -4 | -12 | x
CD11b adhes inh | x | 9 | x | -10 | 29
Fibroblast inh | 102 | 108 | 106 | 94 | x
CD11b adhes enh | x | -5 | x | -3 | 0
ERa coact pot | 110 | 113 | 99 | 122 | x
HUVEC prolif 384 | 109 | 91 | 100 | 96 | x
